Biofilm kill mix: clotrimazole potentiators killing C. albicans biofilm, primary screen, 4-compound mixtures. 120,000 compounds, 0.02% hits. AID 1242, 2008. C. albicans biofilm persisters + clotrimazole, fluorescence viability; primary screen in compound mixtures of four per well. inhibition, % at 7.6 µM;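 active = inhibition above 30.3% in the primary screen of four-compound pools, then above 30% when the compound was retested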;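 note: compounds exposed to preformed 24 h biofilms for 48 h; the number belongs to the whole pool; some results filed as inactive read as strong as hits; inactives centre near 12; 0% = biofilm with clotrimazole alone and 100% = kill control; retested singly at about 60 µM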
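Test system: C. albicans CAF4-2 wild-type biofilms; buffer or medium: RPMI/MOPS medium, pH 7.0; schedule: 24 h biofilm formation, then 48 h compound exposure, 37 °C; detection: Alamar Blue fluorescence; measure: percent inhibition of biofilm viability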
Numbers without * were called inactive.

SMILES	Biofilm kill mix
CN1C(=O)c2ccccc2OC1(C)Cc1ccccc1 (centres undefined)	11
O=C(NN1CCN(Cc2ccccc2Cl)CC1)c1ccc(Cl)cc1	3
CCc1ccc(NS(=O)(=O)c2cccc3nonc23)cc1	13
O=C(NN1C(=O)CSC1=S)c1cccnc1	13
Clc1c(-c2ccccc2)nnn1-c1ccccc1	5
COC(=O)CSc1nc(C)cc(C)c1C#N	11
CN(C)c1cccc(NC(=O)C2(C)CC2(Cl)Cl)c1 (centres undefined)	15
Cc1cc(C(F)(F)F)nn1Cc1n[nH]c(=S)n1Cc1ccccc1	4
COc1ccccc1C(=O)NCCc1nc2ccccc2n1C	7
CCOc1ccc(C(=O)n2cnnc2N)cc1	5
OC(COc1cc(Cl)c(Cl)cc1Cl)CN1CCN(c2ncccn2)CC1 (centres undefined)	15
CCOC(=O)CC1C(=O)NCCN1S(=O)(=O)c1ccccc1 (centres undefined)	17
Cc1ccc(C)c(S(=O)(=O)N2CCCOC2CNC(=O)C(=O)NCc2ccncc2)c1 (centres undefined)	25
Cc1ccc(N2C(=O)c3ccccc3C2C(=O)c2ccc(O)cc2O)cc1 (centres undefined)	22
O=C(N/N=C\c1ccc(F)cc1)c1ccc(F)cc1	13
COc1ccc(NC(=O)c2ccc(C#N)cc2)cc1NS(=O)(=O)c1ccc(F)cc1	7
CN1CCC(N(C)C(=S)NC(=O)c2cc(-c3cccc(Br)c3)nc3ccccc23)CC1	9
COc1ccc(OCC(=O)N/N=C(\C)CC(=O)Nc2ccc(OC)cc2[N+](=O)[O-])cc1	10
CCCCCC(=O)Nc1ncc2c(n1)CC(c1cccs1)CC2=O (centres undefined)	-2
CCOc1cc(C(=O)Nc2ccc([N+](=O)[O-])cn2)cc(OCC)c1OCC	9
Cc1ccc(OCC(=O)N2CCN(C(=O)c3cccnc3)CC2)cc1	9
Cc1c(Cl)cnc(NC(=O)COC(=O)CCc2nc3ccccc3s2)c1Cl	7
COc1cc(/C=N/NC(=O)C2CCN(CC(O)COCc3ccccc3)CC2)cc(OC)c1OC (centres undefined)	-2
CCOc1cc(CNCC(C)C)c(Cl)cc1OCC(=O)Nc1ccccc1	12
NS(=O)(=O)c1ccc(CCNCc2cc(Br)ccc2OCc2ccccc2)cc1	13
SMILES	Biofilm kill mix
Cc1ccc(NC(=O)c2cccnc2)cc1S(=O)(=O)N(C)C	5
Cc1ccc(-n2c(SCC(=O)N/N=C/c3ccccc3OCC(=O)O)nc3ccccc3c2=O)cc1	20
O=C(CCCSc1nc(-c2ccco2)cc(C(F)(F)F)n1)NCC1CCCO1 (centres undefined)	12
CCOC(=O)c1ccc(-n2c(C)ccc2C)cc1	10
O=c1[nH]c2ccsc2c(=O)n1CCO	26
CC(C)=CCN1CCN(Cc2nc(C(C)C)cs2)CC1CCO (centres undefined)	16
CCC(C)(C)c1ccc(Oc2cccc(C(=O)O)c2)cc1	16
NC(=O)[C@@H]1CC2(CC(c3cccc(NC(=O)[C@H]4CCC(=O)N4)c3)=NO2)CN1C(=O)COc1ccc(Cl)cc1 (some centres undefined)	9
CCc1cccc(CC)c1NC(=S)/C(=C(\[O-])c1ccc(Cl)s1)[n+]1ccccc1	9
CC1CCCCN1C(=O)Cn1cnc2cc([N+](=O)[O-])ccc2c1=O (centres undefined)	12
c1ccc(-c2noc(CN3CCCC(OCc4ccccn4)C3)n2)cc1 (centres undefined)	-3
O=[N+]([O-])c1cccc(P(=O)(O)c2cccc([N+](=O)[O-])c2)c1	19
Cc1ccc(S(=O)(=O)N(C)C)cc1NC(=S)NC(C)CCC(C)C (centres undefined)	1
CCN1C(=O)/C(=C2\Sc3ccccc3N2CC)OC1=S	16
COc1ccc(Cl)cc1NC(=S)NCCN1CCOCC1	10
CC1Cc2ccccc2N1C(=O)CO/N=C/c1ccc(OC(F)F)cc1 (centres undefined)	14
COC(=O)c1cccc(/C=N/NC(N)=S)c1O	12
O=c1[nH]c(O)c(C=Nc2ccc(Cl)cc2Cl)c(=O)[nH]1	3
COc1ccc(C(=O)NC(=S)NNC(=O)c2c(-c3ccccc3)noc2C)cc1	25
CCc1ccc(Nc2ccc(S(=O)(=O)N3CCOCC3)cc2[N+](=O)[O-])cc1	22
CC(Sc1nnc(Nc2ccccc2)s1)C(=O)Nc1nc(-c2ccccc2)cs1 (centres undefined)	7
COCCn1nnnc1C(c1ccccc1)N1CCN(c2ccccc2)CC1 (centres undefined)	15
Cc1ccc(N=Cc2cc(Cl)cc(Cl)c2O)nc1	19
CC(C)(/C=N/NC(=O)CSCc1ccc(Cl)cc1)CCC#N	7
CC(C)(C)c1nn2cnnc2n(/N=C/c2cccc3ccccc23)c1=O	8
SMILES	Biofilm kill mix
COc1ccc(C(=O)Nc2ccc3oc(-c4cccc(Cl)c4)cc(=O)c3c2O)cc1	3
CC(=O)Nc1nc(N(C)C)nc(N(C)C)n1	9
Fc1ccc(C2CC(c3cccs3)=NN2C(=S)Nc2ccccc2)cc1 (centres undefined)	16
CCOC(=O)CSCC(=O)N1N=C(c2cccs2)CC1c1ccc(F)cc1 (centres undefined)	15
CCNC(=S)N1CCN(CC)CC1	8
Cc1ccc(C(=O)N/N=C/c2cn(Cc3ccccc3)c3ccccc23)cn1	9
O=C(O)CCNC(=O)c1ccc(NC(=O)Cc2ccc(Cl)cc2)cc1	4
COc1ccc(NC(=O)c2ccc(NCCN3C(=O)CCC3=O)c([N+](=O)[O-])c2)cc1	17
CCCc1cc(C(=O)OC)c2ccccc2n1	13
CNc1ccc(Br)cc1C(O)c1ccccc1 (centres undefined)	18
O=c1cc(N2CCCC2)c(-c2ccccc2)n[nH]1	16
Cc1ccsc1-c1nc(CN(C)C(C2CC2)C2CC2)c(C)o1	20
O=c1[nH]ncc(N2CCN(Cc3ccccc3)CC2)c1Cl	0
Cc1cccc(C(=O)N[C@H](C(=O)Nc2cccc(S(=O)(=O)N3CCCC3)c2)C(C)C)c1	15
O=C(Nc1ccc2c(c1)CCC2)c1cc(S(=O)(=O)Nc2ccc(F)cc2)c(Cl)cc1Cl	7
COc1ccc(CN2C(=O)c3ccccc3C2C(=O)NC2CCC(C)CC2)c(OC)c1 (centres undefined)	12
Cc1ccc(NC(=O)CSc2nc3c(cc2C#N)C(=O)CCC3)cc1S(=O)(=O)N(C)C	10
COCCn1c(-c2ccccc2)csc1=Nc1cccnc1	8
CCOC(=O)c1ccc(NC(=O)CSCC(=O)OCC(=O)c2ccccc2)cc1	1
COc1ccc(CSC2=CS(=O)(=O)c3ccccc3N2)cc1	17
CC(=O)c1ccc(NC(=O)CN(C)CC(=O)Nc2cccc(F)c2)cc1	10
COc1ccc(NC(=O)CC2SC(=NCC3CCCO3)NC2=O)c([N+](=O)[O-])c1 (centres undefined)	1
CC(C)(C)c1ccc(OCC(=O)O)cc1	7
Cc1cc(C)cc(NC(=O)CSc2ccccc2)c1	20
CC(C)c1ccc(C2N3CC4([N+](=O)[O-])CN2CC([N+](=O)[O-])(C3)C4(C)C)cc1 (centres undefined)	4

Among those listed so far, these contain an aryl methoxy group:
SMILES	Biofilm kill mix
COc1ccccc1C(=O)NCCc1nc2ccccc2n1C	7
COc1ccc(NC(=O)c2ccc(C#N)cc2)cc1NS(=O)(=O)c1ccc(F)cc1	7
COc1ccc(OCC(=O)N/N=C(\C)CC(=O)Nc2ccc(OC)cc2[N+](=O)[O-])cc1	10
COc1cc(/C=N/NC(=O)C2CCN(CC(O)COCc3ccccc3)CC2)cc(OC)c1OC (centres undefined)	-2
COc1ccc(Cl)cc1NC(=S)NCCN1CCOCC1	10
COc1ccc(C(=O)NC(=S)NNC(=O)c2c(-c3ccccc3)noc2C)cc1	25
COc1ccc(C(=O)Nc2ccc3oc(-c4cccc(Cl)c4)cc(=O)c3c2O)cc1	3
COc1ccc(NC(=O)c2ccc(NCCN3C(=O)CCC3=O)c([N+](=O)[O-])c2)cc1	17
COc1ccc(CN2C(=O)c3ccccc3C2C(=O)NC2CCC(C)CC2)c(OC)c1 (centres undefined)	12
COc1ccc(CSC2=CS(=O)(=O)c3ccccc3N2)cc1	17
COc1ccc(NC(=O)CC2SC(=NCC3CCCO3)NC2=O)c([N+](=O)[O-])c1 (centres undefined)	1

Next section.
SMILES	Biofilm kill mix
CC(C)CNC(=O)c1ccc(Cl)c(N)c1	14
CC1(C)CC2CC(C)(CN2CC(O)COc2ccccc2)C1 (centres undefined)	10
O=C(Nc1ccc2ccccc2c1)/C(=C/c1cccc(Br)c1)NC(=O)c1ccco1	13
Cc1cc(C)cc(OCC(=O)Nc2ccc3c(c2)C(=O)c2ccccc2C3=O)c1	21
CC(NC(=O)NNC(N)=S)(C(F)(F)F)C(F)(F)F	21
COc1cc(/C=N/Nc2nc3ccccc3[nH]2)ccc1O	24
CCNC(=S)N(CCc1c(C)[nH]c2ccccc12)Cc1cc(OC)c(OC)c(OC)c1	14
O=C(NC(=S)NCCN1CCOCC1)c1ccc(F)cc1	3
CC(Sc1ccc2c(c1)OCCO2)C(=O)Nc1ccc(N2CCOCC2)cc1 (centres undefined)	-4
CN(C)c1ccc(/C=C2\SC(=O)N(CCc3nnc(N)s3)C2=O)cc1	17
Cc1ccccc1NC(=O)Cn1nnc(S(=O)(=O)c2ccc(C(C)(C)C)cc2)c1N	10
CC(C)(C)c1cc(C(=O)N/N=C/c2ccco2)n[nH]1	6
Cc1cc(C)n(-c2ccc(C(=O)N3CCC(CO)(Cc4ccccc4)CC3)cc2)n1	34
COc1ccc(S(=O)(=O)NC(CC(=O)NCCc2ccc(OC)c(OC)c2)C(C)C)cc1 (centres undefined)	7
Cn1cccc1C(=O)NC(=O)COC(=O)c1cc(S(=O)(=O)N2CCCCC2)ccc1Cl	6
O=S(=O)(c1ccc(NC(=S)NCc2cccnc2)cc1)N1CCCCC1	17
Cc1ccccc1N/N=C/c1ccc(C#N)cc1	6
Cc1ccc(CNC(=O)CCC2CCCN(Cc3cccc4cccnc34)C2)o1 (centres undefined)	3
COc1ccc(/C=N/NC(=O)c2cccc(NC(C)=O)c2)c(OC)c1	19
O=C(C1CCCN(CCCc2ccccc2)C1)N1CCCCC1 (centres undefined)	1
C/C(=N/NC(=O)CSc1nc2ccccc2n1C)c1ccc(O)cc1	22
CC(=O)Nc1ccc(/C=N/OCC(=O)Nc2ccc(C)cc2)cc1	13
Cc1ccc(-c2cc(C(=O)N(C)Cc3cnn(C)c3C)c3cc(Br)ccc3n2)cc1	16
Cc1ccc(NC(=O)c2ccccn2)c(Br)c1	-8
C=CCNC(=S)Nc1ccc2nc(C)oc2c1	11
SMILES	Biofilm kill mix
O=C(COC(=O)C1CCC(=O)N1)Nc1ccc(Cl)cc1Cl (centres undefined)	28
CN(C)CCN1C(=O)NC(C)(c2ccc([N+](=O)[O-])cc2)C1=O (centres undefined)	26
CCC1CCCCN1Cc1nc(Cc2ccccc2Cl)no1 (centres undefined)	-5
Cn1c(N)c(C(=O)COC(=O)c2ccc(Cl)nc2)c(=O)n(C)c1=O	20
Cc1cccc(C(=O)Nc2cccc(OCC(=O)O)c2)c1	6
O=C(Nc1ccc2c(c1)CCC2)c1ccccc1Br	8
COc1ccccc1/C=C/C(=O)NCCC1=CCCCC1	-6
O=C(O)CCCNS(=O)(=O)c1ccc2c(c1)OCCCO2	6
CCCc1ccc(C(=O)NNc2ccccc2F)cc1	9
COc1cc2[nH]c(=O)n(CCC(=O)N3CCN(Cc4ccccc4)CC3)c(=O)c2cc1OC	12
O=C(Cc1ccccc1F)Nc1ccc(SC(F)F)cc1	10
CCOC(=O)c1c(NC(=O)CSc2nnc(-c3c[nH]c4ccccc34)n2CCOC)sc2c1CCCCC2	4
CCOC(=O)c1cnc(-n2nc(C)cc2C)nc1Oc1ccc(C#N)cc1	12
COc1ccc(C(C)=O)cc1CSc1nc2ccccc2c(=O)n1-c1ccccc1C	12
NC(N)=NCCC[C@H](NC(=O)OCc1ccccc1)C(=O)O	11
O=c1cc(-c2ccc3c(c2)OCCO3)oc2ccc(Cl)cc12	5
COC(=O)c1ccc(NC(=O)N2CCCC(C(=O)c3ccccc3OC)C2)cc1 (centres undefined)	16
Cc1ccc2sc(N(CCCN(C)C)C(=O)c3nc4ccccc4s3)nc2c1C	13
COC1=C(Nc2ccc(O)cc2)C(=O)c2ccccc2C1=O	3
COc1cccc(NC(=O)CN2C(=O)NC(C)(CCC(C)C)C2=O)c1 (centres undefined)	13
CC1Oc2ccccc2C=C1/C=N/NC(=O)c1ccccc1 (centres undefined)	11
CCN(CC)CCNc1ncnc2c1sc1nc(N3CCCC3)c3c(c12)CC(C)(C)OC3	12
Cc1ccc(OCC(=O)N(Cc2ccccc2)C(C)(C)C)c([N+](=O)[O-])n1	12
CC(=O)Nc1ccc(NC(=O)Nc2ccc(C)c(C)c2)cc1	7
O=C(Nc1ccc(NC(=O)c2cc3ccccc3o2)cc1)c1ccc2c(c1)OCCO2	21

Brought forward from above: 3 entries; new compounds follow.
SMILES	Biofilm kill mix
Cc1ccc(OCC(=O)N(Cc2ccccc2)C(C)(C)C)c([N+](=O)[O-])n1	12
CC(=O)Nc1ccc(NC(=O)Nc2ccc(C)c(C)c2)cc1	7
O=C(Nc1ccc(NC(=O)c2cc3ccccc3o2)cc1)c1ccc2c(c1)OCCO2	21
COc1ccc(/C=N/N2CCOCC2)cc1O	11
N#Cc1ccccc1OCC(=O)N1CCc2ccccc2C1	25
CCN(CC(=O)NCc1cccs1)C(=O)c1ccccc1Cl	23
Cc1ccc(NC(=S)Nc2ccc3nc(-c4ccccn4)c(-c4ccccn4)nc3c2)cc1C	-3
CCN1CCN(CCC(=O)Nc2ccc3c(c2)OCO3)CC1	12
CCN(C(=O)COC(=O)c1ccccc1NC(=O)c1ccco1)C1CCS(=O)(=O)C1 (centres undefined)	8
COc1cc(/C=C(\C#N)C(N)=O)ccc1OS(=O)(=O)c1ccc(C)cc1	-6

Source: PubChem BioAssay

Only part of the results is shown, so the mix of outcomes need not match the whole.
